TRPML1 ag – agonists of human TRPML1 channel. TRPML1-expressing cells, Ca2+ dye fluorescence, FDSS; host cell line not named in the record; reference of the full effect not given here. activation, % (concentration not given with the values). actives 0.12% (n = 410,000); in the data active = activation above about 50%; inconclusive = about 30% to 50%; inactive = below about 30%; also: 0% is about no effect; the text of the record puts the active cut at 80%
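Calcium fluorescence on an FDSS kinetic reader gave the read-out. Tet-induced TRPML1-DL cells were plated overnight, dye-loaded (Ca8 with quencher, 45-90 min, room temperature, dark), then read 110 s after compound addition, and again 110 s after 4uM final 54-4 (EC80).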
TRPML1 blocker – inhibitors of human TRPML1 channel | TRPML1-inducible cells, Ca2+ dye fluorescence, FDSS; stronger effect = lower value; inhibition of EC80 agonist-evoked calcium signal | activity change, negative = inhibition, % (concentration not given with the values) | actives 0.02% (n = 390,000) | AID 624415; in the data active means activity change below about -50%; inconclusive means about -30% to -50%; inactive means above about -30%;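 also: stimulus is agonist 54-4 at its EC80 concentration; % is scaled to controls: 0 for no effect and ±100 for the full control effect; compound concentration not given in the record; the text of the record puts the active cut at -80%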
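Calcium fluorescence in TRPML1-DL cells induced overnight with Tet: a 110 s read after compound pin addition, then a 110 s antagonist read after challenge with 54-4 at 4 uM final (EC80).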
ClpP mod – qHTS Assay for Activators of ClpP; ATP-dependent Clp protease proteolytic subunit (Bacillus subtilis (strain 168)), P80244; purified B. subtilis ClpP, FRET peptide cleavage, 20 min; Potency, µM (titrated, usually from 57.5 µM), for inactives: at the highest dose activity change, negative = active; actives 1.9% (n = 340,000); AID 651965, 2013; active = well fitted falling curve with a large enough effect; inconclusive = small, poorly fitted or top-dose-only effect; inactive = no such curve, though single readings can be large or run the other way; also: potency is read from the fitted curve at half-maximal effect; the source files actives as falling curves though it sought activators and does not explain the sign; nearly all actives have a fitted effect of over 65% in size; many hits overshoot -100%
Target sequence (P80244 whole entry, looked up): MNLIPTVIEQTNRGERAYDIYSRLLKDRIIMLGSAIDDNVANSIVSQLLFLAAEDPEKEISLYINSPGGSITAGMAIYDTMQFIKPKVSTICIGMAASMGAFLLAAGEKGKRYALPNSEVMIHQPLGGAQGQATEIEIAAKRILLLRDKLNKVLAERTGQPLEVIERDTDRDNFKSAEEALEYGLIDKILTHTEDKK
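ClpP 10 microg/mL final, pH 8 Tris/KCl buffer with BSA, glycerol, Tween-20; compound pinned in; FRET-FV substrate; RT 20 min; Ex320/Em430; ΔFRET vs ADEP 5.8 microM, DMSO, no enzyme.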
TRPV1 potentiator – potentiators of human vanilloid receptor 1 (TRPV1); potentiation, % at 8.33 µM; AID 540277; actives 0.02% (n = 320,000); TRPV1-expressing cells, Fluo-8 calcium influx, capsaicin EC20 potentiation; host cell line not named in the record; control for the full effect not named in the record; active means potentiation above 80%; inconclusive means 30% to 80%; inactive means below 30%; also: 0% is about no effect
Target sequence (Q8NER1 whole entry, looked up): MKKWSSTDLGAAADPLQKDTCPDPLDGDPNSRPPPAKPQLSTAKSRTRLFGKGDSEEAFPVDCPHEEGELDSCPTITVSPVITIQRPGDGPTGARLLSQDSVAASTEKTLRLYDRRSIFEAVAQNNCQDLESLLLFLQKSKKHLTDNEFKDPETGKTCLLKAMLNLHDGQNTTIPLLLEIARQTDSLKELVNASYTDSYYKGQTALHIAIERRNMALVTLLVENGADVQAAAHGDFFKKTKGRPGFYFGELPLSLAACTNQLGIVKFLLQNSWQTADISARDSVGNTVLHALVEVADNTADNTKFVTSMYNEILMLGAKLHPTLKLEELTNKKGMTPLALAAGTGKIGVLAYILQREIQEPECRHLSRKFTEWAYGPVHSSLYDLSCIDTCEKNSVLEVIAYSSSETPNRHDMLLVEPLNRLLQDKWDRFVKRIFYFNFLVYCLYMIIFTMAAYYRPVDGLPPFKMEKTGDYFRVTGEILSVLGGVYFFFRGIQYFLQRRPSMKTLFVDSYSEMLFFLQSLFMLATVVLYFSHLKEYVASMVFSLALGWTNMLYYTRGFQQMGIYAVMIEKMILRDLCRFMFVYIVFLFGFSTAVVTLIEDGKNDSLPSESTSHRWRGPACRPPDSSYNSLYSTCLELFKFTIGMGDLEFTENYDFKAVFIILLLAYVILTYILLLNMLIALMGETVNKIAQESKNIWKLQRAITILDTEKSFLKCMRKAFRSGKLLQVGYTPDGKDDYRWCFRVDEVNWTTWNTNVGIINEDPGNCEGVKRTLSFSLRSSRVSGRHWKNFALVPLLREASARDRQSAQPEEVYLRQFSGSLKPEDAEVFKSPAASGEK
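TRPV1-expressing cells were cultured overnight at 35.5C and loaded with Fluo-8 calcium dye for 40 to 90 min at room temperature. After a 10 s baseline, compound was added and calcium influx was read kinetically for 3 min (ex 480/em 520 nm).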
PINK1 expr mod – PINK1 expression modulation; PINK1 immunofluorescence, high-content cytometry, 24 h; Potency, µM (series often up to 76.6 µM), for inactives: top-dose activation (PINK1 increase), usual class: activators; actives 0.2% (n = 410,000); AID 624263; active = well fitted activation curve with a large enough effect; inconclusive = small, poorly fitted or top-dose-only effect; inactive = flat fitted curve, though single readings scatter; cell line not stated here;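 also: potency is read from the fitted curve at half-maximal effect; % of control where 0% means no effect; nearly all actives have a fitted effect of over 65% in size; a mitochondrial uncoupler was the plate control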
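Stable cell line, 250 cells/well, 12 h attachment; compounds pinned at 5 concentrations, 24 h; CCCP control. Fixed with nuclear dye, primary antibodies 12 h at 10 degrees C, secondary plus cell stain; laser-scanning cytometer read.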
Sfp PPTase inh – Sfp phosphopantetheinyl transferase inhibition; Biochemical Sfp PPTase activity, qHTS; Potency, µM, inactives show max response, negative = inhibition, usual class: inhibitors; actives 3.5% (n = 310,000); AID 1490; active = well fitted inhibition curve with a large enough effect; inconclusive = small, poorly fitted or top-dose-only effect, or another doubt; inactive = no such curve, though single readings can be large or run the other way;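 also: the enzyme is Sfp with the accession as filed and its product quenches rhodamine fluorescence; potency is read from the fitted curve at half-maximal effect; 0% = enzyme reaction without inhibitor and -100% = no enzyme wells; top concentration of the series not given in the record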
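After 15 min at room temperature with compound, 15 nM Sfp received 5 uM rhodamine-CoA plus 12.5 uM BHQ-2-ybbR (50 mM Hepes pH 7.6, 10 mM MgCl2). Rate came from the fluorescence difference over 30 min, ex 525/em 598 nm.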
Menin-MLL FL inh – displaces fluorescein MLL peptide from human menin | Fluorescence polarization, fluorescein-MLL peptide displacement from menin | FP activity change, % at 61.4 µM | 290,000 tested, under 10 active | AID 1766; inconclusive = falling polarisation curve, or a change in total fluorescence; inactive = total fluorescence flat and polarisation flat or rising; no compound was filed as active; the % refers to the polarisation; negative = inhibition;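 also: % of control where 0% means no effect; inhibitors lower the polarisation; unlabelled MLL peptide was the positive control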
The depositor's hits bear a star; ? = inconclusive; . = no result given; & = joins results of further samples; [ ] = dose if it differs, or a comment.

(1) COc1ccc(-c2ccc(-c3noc(-c4cccc(OC)c4)n3)c(OC)n2)cc1
(2) Cc1ccc(NC(=O)C(Nc2cccc(C)c2)c2ccccc2)cc1 (stereo not given)
(3) CCOC(=O)c1c(C)c(C)n2c1NC(=O)C2
(4) c1ccc(C2CC(c3ccccc3)n3c(nc4ccccc43)N2)cc1 (stereo not given)
(5) C[C@H](CO)N1C[C@H](C)[C@@H](CN(C)S(=O)(=O)c2ccccc2)Oc2c(NC(=O)CCC(F)(F)F)cccc2C1=O
(6) CCCCC(=O)N(C)c1c(C)nc2ccc(C(=O)N(CC)CCN(C)C)cn12

assay / entry	1	2	3	4	5	6
TRPML1 ag	-0.4	2.7	0.9	-0.2	0.5	-0.1
TRPML1 blocker	4	-2	.	52	-3	.
ClpP mod	3.2µM*	1.7%	-1.5%	-6.4%	2.5%	-6.7%
TRPV1 potentiator	-1	3	.	-3	.	.
PINK1 expr mod	-0.2%[38.3 µM]	8.6%	1.2%	15%	-0.5%	-0.1%
Sfp PPTase inh	11%	-7%	.	14%	.	.
Menin-MLL FL inh	0.8	5.0	.	6.4	.	.

(7) CCCCN(CC)CCCNC(=O)c1nn(C)c2c1CS(=O)(=O)c1ccccc1-2
(8) COc1ccc(-c2csc(NC(=O)c3cccc(S(=O)(=O)N4CCN(C)CC4)c3)n2)cc1
(9) C[C@@H]1CN([C@H](C)CO)C(=O)c2cc(Br)cnc2O[C@H]1CN(C)Cc1cccnc1
(10) COC(=O)c1cn(CC(=O)N2C(C)CCCC2C)c2ccccc12 (stereo not given)
(11) O=C(Nc1ccc2c(c1)OCO2)c1ccc(COc2ccc3c(c2)CCC3)o1
(12) CC(C)Cn1c2c(c(O)c(C(=O)Nc3ncccc3O)c1=O)CCCC2

assay / entry	7	8	9	10	11	12
TRPML1 ag	-0.4	0.6	-0.4	0.0	2.3	2.8
TRPML1 blocker	?	-2	0	-15	22	-14
ClpP mod	-12%	-1.2%	-1.1%	-1.5%	-3.5%	2.1%
TRPV1 potentiator	.	4	.	-22	-5	-11
PINK1 expr mod	1.0%	.	-1.6%	0.1%	?	-2.2%
Sfp PPTase inh	.	13%	.	10%	-5%	-14%
Menin-MLL FL inh	.	-3.3	.	2.6	2.5	-6.6

(13) CCCc1nnc(SCC(=O)Nc2ccccc2Cl)n1CC1CCCO1 (stereo not given)
(14) CCOc1ccc(N2CC(=O)N/C2=N\c2nc(C)cc(C)n2)cc1
(15) O=c1[nH]c(Nc2ccc(F)cc2)cc2ccccc12
(16) Cc1onc(-c2c(F)cccc2Cl)c1C(=O)OCc1cnc(Cl)s1
(17) COC(=O)c1ccc2nc(-c3ccc(C)cc3)c(Cc3cccc(Cl)c3)n2c1
(18) COc1cc(Nc2nc3ccc(Cl)cc3nc2-n2nc(C)cc2C)cc(OC)c1

assay / entry	13	14	15	16	17	18
TRPML1 ag	1.3	0.4	4.0	2.0	0.5	-0.4
TRPML1 blocker	0	-5	-3	17	.	-7
ClpP mod	.	-1.2%	?	0.7%	4.3%	-1.3%
TRPV1 potentiator	6	2	3	-9	.	.
PINK1 expr mod	-2.8%	2.7%	-0.5%[38.3 µM]	3.3%	16%	5.6%
Sfp PPTase inh	0%	-4%	-27%	-4%	.	.
Menin-MLL FL inh	0.5	4.4	?	2.8	.	.

(19) Cc1ccc(-c2csc3ncnc(Oc4cccc5ccc(C)nc45)c23)cc1
(20) C=CCNc1ncnc2c1ncn2[C@H]1CN(Cc2ccc(F)cc2)C[C@@H](CO)O1
(21) S=C(Nc1ccccc1Cl)N1CCN(c2ccccn2)CC1
(22) COc1ccc(NCc2nnc(SCCN3CCCCC3)n2-c2ccc(C)cc2)cc1
(23) COc1cc(NC(=O)CCNC(=O)Cn2cnc3ccccc3c2=O)cc(OC)c1OC
(24) C=CCOc1ccc(/C=N/NC(C)=O)cc1OCC

assay / entry	19	20	21	22	23	24
TRPML1 ag	0.8	0.1	0.2	-0.9	-0.6&0.2	-0.9
TRPML1 blocker	-23	.	-18	0	0&12	-10
ClpP mod	1.7%	-0.5%	?	9.9%	0.5%&-0.2%	.
TRPV1 potentiator	5	.	-15	4	7	-2
PINK1 expr mod	8.8%	1.4%	-1.1%	-1.7%	2.5%&2.6%	1.4%
Sfp PPTase inh	-8%	.	2%	17%	18%	-1%
Menin-MLL FL inh	1.4	.	-5.6	-0.2	2.7	-2.4

(25) CCCOc1ccc(N2C(=O)CC(NCCNc3ccc([N+](=O)[O-])cn3)C2=O)cc1 (stereo not given)
(26) O=C1CCCC2=C1C(c1ccc(Cl)cc1)N1C(=O)CCSC1=N2 (stereo not given)
(27) C=Cc1ccc(Cn2c(C)c(CNCc3cccc(Br)c3)c(C(=O)O)c2C)cc1
(28) O=C(NCCO)c1cccc(-c2cnc3cccnn23)c1
(29) Cc1cccc(C)c1-n1nnnc1C1(C)CCC(=O)N1CCCn1ccnc1 (stereo not given)
(30) COc1ccc(-n2ncc3c2CC(C)(C)CC3NC(=O)c2oc(C)cc2C)cc1 (stereo not given)

assay / entry	25	26	27	28	29	30
TRPML1 ag	-0.2	0.2	1.1	0.0	-0.1	-0.9
TRPML1 blocker	-11	8	4	.	.	4
ClpP mod	1.0%	-1.4%	1.1%	4.9%	-1.9%	-1.5%
TRPV1 potentiator	-4	17	.	.	.	-4
PINK1 expr mod	3.9%	0.9%	2.7%	0.2%	0.6%	3.2%
Sfp PPTase inh	-7%	1%	.	.	.	14%
Menin-MLL FL inh	2.5	-0.5	.	.	.	-0.6

(31) O=C(CCCCC(=O)Sc1ccccc1)Sc1ccccc1
(32) CC(C)(C)C1c2[nH]c3ccccc3c2CCN1CCCn1cccn1 (stereo not given)
(33) COc1ccc(N2CCN(C(=O)c3c(-c4c(F)cccc4Cl)noc3C)CC2)cc1
(34) Oc1c(Br)cc(Br)cc1C=Nc1ccc2[nH]ncc2c1
(35) COC(=O)c1ccc(NC(=O)c2ccc[n+]([O-])c2)cc1
(36) COc1cccc(CN(C)C(=O)c2ccc(COc3ccc(Cl)cc3)cc2)c1OC

assay / entry	31	32	33	34	35	36
TRPML1 ag	0.6	0.5	0.8	1.8	0.1	4.6
TRPML1 blocker	0	-7	-10	-7	-1	1
ClpP mod	4.8%	.	1.2%	4.1%	.	.
TRPV1 potentiator	.	11	-6	4	4	27
PINK1 expr mod	0.7%	0.3%	1.3%	13%	0.3%	7.7%
Sfp PPTase inh	.	13%	7%	12%	22%	-22%
Menin-MLL FL inh	.	-2.7	5.4	?	6.8	-2.7

Ordered by molecular weight (low to high): some entries from above
(35) COC(=O)c1ccc(NC(=O)c2ccc[n+]([O-])c2)cc1
(28) O=C(NCCO)c1cccc(-c2cnc3cccnn23)c1
(31) O=C(CCCCC(=O)Sc1ccccc1)Sc1ccccc1
(32) CC(C)(C)C1c2[nH]c3ccccc3c2CCN1CCCn1cccn1 (stereo not given)
(29) Cc1cccc(C)c1-n1nnnc1C1(C)CCC(=O)N1CCCn1ccnc1 (stereo not given)
(30) COc1ccc(-n2ncc3c2CC(C)(C)CC3NC(=O)c2oc(C)cc2C)cc1 (stereo not given)
(34) Oc1c(Br)cc(Br)cc1C=Nc1ccc2[nH]ncc2c1
(27) C=Cc1ccc(Cn2c(C)c(CNCc3cccc(Br)c3)c(C(=O)O)c2C)cc1

assay / entry	35	28	31	32	29	30	34	27
TRPML1 ag	0.1	0.0	0.6	0.5	-0.1	-0.9	1.8	1.1
TRPML1 blocker	-1	.	0	-7	.	4	-7	4
ClpP mod	.	4.9%	4.8%	.	-1.9%	-1.5%	4.1%	1.1%
TRPV1 potentiator	4	.	.	11	.	-4	4	.
PINK1 expr mod	0.3%	0.2%	0.7%	0.3%	0.6%	3.2%	13%	2.7%
Sfp PPTase inh	22%	.	.	13%	.	14%	12%	.
Menin-MLL FL inh	6.8	.	.	-2.7	.	-0.6	?	.

(cont.)
(37) CCOCCCNC(=O)CNC(=S)N(Cc1ccccc1F)C1CCCCC1
(38) COC(=O)c1ccc(/C=N/OCC(=O)Nc2cc(F)ccc2F)cc1
(39) CCC(Cc1ccccc1)NC(=O)/C=C/c1ccco1 (stereo not given)
(40) O=C(O)c1[nH]c(-c2ccccc2)c2c1C(=O)N(C1CC1)C2=O
(41) Oc1ccc(-c2[nH]ncc2-c2cccc3cccnc23)c(O)c1
(42) CCCCCCCC(=O)NNC(=O)CC(=O)Nc1ccccc1C(=O)O

assay / entry	37	38	39	40	41	42
TRPML1 ag	0.6	2.0	-0.3	-0.5	0.3	-1.0
TRPML1 blocker	-1	-13	-3	.	5	3
ClpP mod	-1.8%	.	-0.1%	5.2%	-9.6%	-15%
TRPV1 potentiator	-3	-9	-4	.	-4	7
PINK1 expr mod	2.3%[38.3 µM]	5.4%	-0.3%	0.4%	.	-0.1%
Sfp PPTase inh	19%	7%	56µM*	.	11%	-2%
Menin-MLL FL inh	-0.7	0.7	6.6	.	0.0	8.3

(43) O=C(Nc1ccc2ccccc2n1)c1ccccc1Br
(44) CC(C)(Oc1ccc(Cl)cc1)C(=O)NNC(=O)c1ccc(Br)o1
(45) O=C(Nc1ccccc1)C1C(c2ccccc2)C1(Cl)Cl (stereo not given)
(46) CC(Sc1nncs1)C(=O)Nc1ccc(S(=O)(=O)Nc2ncccn2)cc1 (stereo not given)
(47) COc1ccc2nc(N3CCC(C)CC3)c(C#N)cc2c1
(48) CCc1ccccc1NC(=O)CN(c1cccc(C)c1C)S(C)(=O)=O
(49) O=c1oc2ccc(C#CC3(O)CCCCC3)cc2cc1-n1cc(-c2ccsc2)nn1
(50) CCOc1ccc(N2CC(c3nc4ccccc4n3CCC3CCCCC3)CC2=O)cc1 (stereo not given)
(51) CCOc1ccc(N(CC(=O)NCCOc2ccccc2OC)S(=O)(=O)c2ccccc2)cc1

assay / entry	43	44	45	46	47	48	49	50	51
TRPML1 ag	1.0	-0.6	0.9	-0.2	4.9	0.0	0.5	0.0	1.4
TRPML1 blocker	0	-6	34	1	-1	8	-10	-16	-9
ClpP mod	.	-1.4%	0.8%	-4.0%	-6.9%	-0.6%	32µM*	-1.0%	1.9%
TRPV1 potentiator	-48	3	-31	.	-4	.	-3	.	-20
PINK1 expr mod	-0.3%	0.2%	0.2%	5.1%	5.1%	0.1%	3.5%	0.2%	0.4%
Sfp PPTase inh	9%	21%	18%	.	40µM*	.	.	.	4%
Menin-MLL FL inh	-3.3	.	5.9	.	?	.	.	.	-2.9
